# Assay outcomes deposited in PubChem BioAssay by National Center for Advancing Translational Sciences (NCATS).
# CtBP-E1A inh: CtBP/E1A binding inhibition; AlphaScreen GST-E1A/His-CtBP binding, 1536-well; hits give low values; control for the full effect not named in the record; activity change, % (no concentration beside the values); hit rate 0.49% among 340,000; AID 651724; in the data active means activity change below about -65%; inconclusive means about -30% to -65%; inactive means above about -30%; note: % is set by controls: 0 for no effect and ±100 for the full control effect; compound concentration not given in the record
#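 Homogeneous bead-based format: GST-tagged E1A captured on glutathione donor beads, His-tagged CtBP on nickel acceptor beads; compounds precede bead addition by 2 h at 37 °C.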
# D2 PAM: potentiates the human D2 dopamine receptor allosterically; potentiation, % (test concentration not listed); DiscoveRx D2 beta-arrestin cells, luminescence, 90 min; 100% = 57 uM dopamine signal; hit rate 0.23% among 360,000; P14416; active = potentiation of 50% or more; inconclusive = 30% to 50%; inactive = 30% or less;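 note: compound concentration not given in the record; tested on top of an EC20 dose of dopamine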
# Target sequence (P14416 whole entry, looked up): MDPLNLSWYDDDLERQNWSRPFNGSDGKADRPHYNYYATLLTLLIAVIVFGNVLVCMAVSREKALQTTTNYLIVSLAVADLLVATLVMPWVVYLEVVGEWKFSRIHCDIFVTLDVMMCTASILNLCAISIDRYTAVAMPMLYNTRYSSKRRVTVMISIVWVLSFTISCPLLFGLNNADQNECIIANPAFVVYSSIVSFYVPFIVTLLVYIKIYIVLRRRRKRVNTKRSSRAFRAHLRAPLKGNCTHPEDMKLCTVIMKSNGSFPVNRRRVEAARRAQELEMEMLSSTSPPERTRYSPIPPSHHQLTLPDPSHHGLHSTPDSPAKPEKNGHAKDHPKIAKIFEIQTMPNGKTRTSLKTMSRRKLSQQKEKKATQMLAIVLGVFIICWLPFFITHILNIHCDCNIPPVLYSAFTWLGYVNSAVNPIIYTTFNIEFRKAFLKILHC
#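 D2 cells co-treated with compound plus 50 nM dopamine (EC20) for 90 min at 37 deg C to detect potentiation. Beta-arrestin recruitment was read as enzyme-fragment luminescence after 1 h at ambient temperature. Full response was set by 57 uM dopamine.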
# gsp ag: agonists of gsp mutant (McCune-Albright syndrome). gsp mutant cells, cAMP HTRF, 30 min; control for the full effect not named in the record. Potency, µM (doses to about 76.9 µM), without a hit: at the top dose activation (cAMP increase), usual class: activators. hit rate 0.13% among 340,000. AID 624287; active = well fitted activation curve with a large enough effect; inconclusive = small, poorly fitted or top-dose-only effect, or another doubt; inactive = no such curve, though single readings can be large or run the other way; cell line not stated here;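 note: phosphodiesterase inhibitor Ro 20-1724 added with compounds to block cAMP breakdown; potency is the fitted concentration of half-maximal effect; nearly all actives have a fitted effect of over 60% in size; about a fifth of the inactives were tested at one dose only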
#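 Cells stably selected in G418 were plated at 2000/well, grown 16-24 hr, then given compounds in DMSO with the PDE inhibitor […] (300 uM solution added) for 30 min at 37C; cAMP was read by HTRF.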
# Six1-Eya2 inh: inhibitors of human Six1/Eya2 interaction | AlphaScreen GST-Six1/His-Eya2 binding, biochemical; hits give low values; control for the full effect not named in the record | Q15475+O00167 | activity change, % (concentration not given with the values) | AID 651725 | hit rate 0.56% among 360,000; in the data active = activity change below about -65%; inconclusive = about -30% to -65%; inactive = above about -30%; note: % is set by controls: 0 for no effect and ±100 for the full control effect
#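 Homogeneous AlphaScreen proximity assay pairing GST-Six1 with His-tagged Eya2 (added as 5X mix: 250 nM and 500 nM) in 50 mM Tris pH 8.0, 300 mM NaCl, 1 mM TCEP. Glutathione donor and nickel acceptor beads; 1 h, 37 °C, dark.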
# gsp antag: antagonizes gsp, the McCune-Albright syndrome mutation; Potency, µM (highest dose often 76.9 µM), for inactives: top-dose activity change, negative = inhibition, usual class: inhibitors; gsp-mutant cells, cAMP HTRF, 30 min; control for the full effect not named in the record; hit rate 0.4% among 340,000; active = falling curve of any shape with a large fitted effect; inconclusive = falling curve, mostly with a smaller effect; inactive = flat or rising curve; cell line not stated here;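 note: intracellular cAMP measured with PDE inhibitor Ro 20-1724 present during compound exposure; potency is the fitted concentration of half-maximal effect; % is set by controls: 0 for no effect and ±100 for the full control effect; nearly all actives have a fitted effect of over 65% in size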
#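 Measurement of cellular cAMP by homogeneous time-resolved fluorescence following a 30 min compound exposure at 37C. The PDE inhibitor […] was present throughout; the assay buffer was DPBS with 0.05% BSA and 0.005% Tween 20.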
# D2 ag: activates the human D2 dopamine receptor; hit rate 0.084% among 360,000; P14416; activation, % (test concentration not listed); DiscoveRx PathHunter D2 beta-arrestin, luminescence, 90 min; 100% = 57 uM dopamine signal; AID 624465; in the data active = activation above about 40%; inconclusive = about 15% to 40%; inactive = below about 15%; note: compound concentration not given in the record; the text of the record calls up to 30% inactive
#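 DiscoveRx PathHunter D2 beta-arrestin cells (2,100/well) attached overnight, then compound-stimulated 90 min at 37 C in HBSS/10 mM HEPES/0.1% Tween-20 buffer; beta-galactosidase complementation read by luminescence after 1 h at ambient temperature. Dopamine 57 uM final (EC100) as control.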
# An asterisk follows results filed as active; u = inconclusive; x = not tested or not shown; [ ] = dose if it differs, or a comment.
entry	SMILES	D2 ag	gsp ag	gsp antag	Six1-Eya2 inh	D2 PAM	CtBP-E1A inh
1	COC(=O)C1=C(c2cccc(OCc3ccccc3)c2)C[C@@H]2CC[C@H]1N2C(=O)NCCc1ccc(F)cc1	-2.4	-47%[inhibitor]	-28%	-20	-16	-3
2	CN1C2CCC1CC(OC(=O)c1ccc([N+](=O)[O-])cc1)C2 (centres undefined)	-1.7	-4%[15.4 µM]	20%	-11	3	-2
3	CCc1ccc(N2C(=O)NC(=O)C(Cc3ccc(OC)cc3OC)C2=O)cc1 (centres undefined)	0.0	-4%	2%	0	-5	0
4	C[C@@H]1O[C@@H](O[C@H]2C[C@@H](O)[C@]3(CO)[C@H]4[C@H](O)C[C@]5(C)[C@@H](C6=CC(=O)OC6)CC[C@]5(O)[C@@H]4CC[C@]3(O)C2)[C@H](O)[C@H](O)[C@H]1O	-4.3	x	2%	6	11	1
5	C[C@@H](N)Cc1cnc[nH]1	-2.0	x	-4%	-1	-7	2
6	CSc1nc(N)c(N=Nc2ccc([As](=O)(O)O)cc2)c(=O)[nH]1	0.1	-3%[15.4 µM]	-8%	-9	-6	4
7	Brc1cccc(CNCCc2ccc3c(c2)OCO3)c1	-3.5	-12%	-1%	1	-51	x
8	CC(=O)N1CCN(CC(=O)Nc2ccc(C#N)c(Cl)c2)CC1	0.8	7%	8%	2	-4	-4
9	c1ccc([C@@H]2CO2)cc1	-3.8	x	-8%	7	0	12
10	O=c1[nH]c(=S)[nH]c(O)c1N=Nc1ccc(S(=O)(=O)N2CCOCC2)cc1	-5.9	-18%	-5%	-1	-21	x
11	N#CC(C#N)=NNc1ccc(-n2ccc(C(F)(F)F)n2)cc1	3.7	u	32µM*	-7	-14	1
12	Cc1ccc(C[n+]2c(-c3ccc(C)cc3)cc(-c3ccc(C)cc3)cc2-c2ccc(C)cc2)cc1	9.5	x	7%	-8	-74	-2
13	c1cc2c(cc1NC1=NCCO1)CCCC2	0.2	8%	4%	6	-25	-3
14	Cc1cccc(CSc2nc3c(cc2C#N)CN(C)CC3)c1	2.7	-35%[inhibitor]	5%	6	-7	1
15	COc1ccc(CN2CCN(Cc3ccccc3F)CC2)cc1	-4.2	-1%[15.4 µM]	1%	4	-21	0
16	CC(C)(C)c1ccc(OC(=O)N2CCCCC2)cc1	-12	1%[15.4 µM]	13%	12	-5	-2
17	CCC1(c2ccccc2)C(=O)N(C)C(=O)N(C)C1=O	1.6	-48%[inhibitor]	3%	-1	-6	16
18	C[C@@H]1CC2C3CC=C4C[C@@H](O)CC[C@]4(C)C3CC[C@]2(C)[C@H]1O (some centres undefined)	5.4	-6%	-9%	3	-2	6
19	CC(=O)OC1(c2ccccc2)CC(C(C)(C)C)CN(C(C)(C)C)C1 (centres undefined)	1.7	-6%	11%	6	-8	8
20	COC(=O)C(C)Oc1cc(C)cc2oc(=O)c3c(c12)CCCC3 (centres undefined)	-1.0	0%	1%	2	-6	3

entry	SMILES	D2 ag	gsp ag	gsp antag	Six1-Eya2 inh	D2 PAM	CtBP-E1A inh
21	CCCOc1ccc(N2C(=O)CC(N3CC=C(c4ccccc4)CC3)C2=O)cc1 (centres undefined)	-0.9	4%	12%	-5	-10	-1
22	Cc1onc(-c2ccccc2)c1C(=O)Nc1ccc(S(=O)(=O)N2CCCC2)cc1	-5.6	u	-11%	7	-7	42
23	COC(=O)C1=C(c2ccc(F)cc2OCc2ccccc2)C[C@@H]2CC[C@H]1N2C(=O)NCc1ccc(C)cc1	0.3	11%	-13%	-4	-16	-5
24	COc1ccccc1CNC(=O)CCC(=O)N1C[C@H]2C[C@@H](C1)c1cccc(=O)n1C2	-1.3	x	7%	6	-10	5
25	S=P(NC1CCCCC1)(N1CC1)N1CC1	-7.1	0%	9%	13	-8	x
26	CN1CCN(S(=O)(=O)c2ccc(Cl)nc2)CC1	-0.7	1%	15%	0	-18	3
27	CCC(=O)N1N=C(c2c(O)n(CCc3ccccc3)c(=O)[nH]c2=O)CC1c1ccc(OC)c(OC)c1 (centres undefined)	-2.3	8%	5%	-19	-5	-9
28	C[C@]12CCC3C(CC[C@H]4C[C@@H](O)CC[C@]34C)[C@H]1CC[C@H]2O (some centres undefined)	1.9	27%	-1%	5	0	2
29	C=CCn1c(O)c(/C(C)=N/N2CCN(C)CC2)c(=O)[nH]c1=O	-3.4	-1%[15.4 µM]	1%	10	-7	2
30	O=P1(Oc2ccccc2)OCCCS1 (centres undefined)	-3.8	19%	22%	7	-2	10
31	COc1ccc(OC)c(N=Cc2c(O)n(Cc3ccccc3)c(=S)[nH]c2=O)c1	-0.1	10%[15.4 µM]	14%	10	1	2
32	O=C(NCc1cccnc1)NC1CCCCC1	0.0	-65%[inhibitor]	5%	2	-1	11
33	CCP(=S)(CC)c1ccc(N(C)C)cc1	-2.7	10%[15.4 µM]	x	8	-8	0
34	CC(=O)OC1N=C(c2ccccc2Cl)c2cc(Br)ccc2NC1=O (centres undefined)	-4.1	u	-18%	-4	-8	1
35	COc1ccc(CN2CCN(C(=O)Cc3ccccc3)CC2)cc1Br	0.1	-55%[inhibitor]	-18%	-18	-4	-10
36	O=C(O)COc1ccc(Br)cc1C(c1c(C(=O)O)[nH]c2ccccc12)c1c(C(=O)O)[nH]c2ccccc12	-3.0	-15%	4%	-8	1	5
37	O=c1c2ccccc2nc(/C=C\c2ccccc2[N+](=O)[O-])n1-c1ccccc1O	1.1	9%[15.4 µM]	u	-12	1	-17

# Filtered by structure: the compounds so far with an NH in an aromatic ring.
entry	SMILES	D2 ag	gsp ag	gsp antag	Six1-Eya2 inh	D2 PAM	CtBP-E1A inh
5	C[C@@H](N)Cc1cnc[nH]1	-2.0	x	-4%	-1	-7	2
6	CSc1nc(N)c(N=Nc2ccc([As](=O)(O)O)cc2)c(=O)[nH]1	0.1	-3%[15.4 µM]	-8%	-9	-6	4
10	O=c1[nH]c(=S)[nH]c(O)c1N=Nc1ccc(S(=O)(=O)N2CCOCC2)cc1	-5.9	-18%	-5%	-1	-21	x
27	CCC(=O)N1N=C(c2c(O)n(CCc3ccccc3)c(=O)[nH]c2=O)CC1c1ccc(OC)c(OC)c1 (centres undefined)	-2.3	8%	5%	-19	-5	-9
29	C=CCn1c(O)c(/C(C)=N/N2CCN(C)CC2)c(=O)[nH]c1=O	-3.4	-1%[15.4 µM]	1%	10	-7	2
31	COc1ccc(OC)c(N=Cc2c(O)n(Cc3ccccc3)c(=S)[nH]c2=O)c1	-0.1	10%[15.4 µM]	14%	10	1	2
36	O=C(O)COc1ccc(Br)cc1C(c1c(C(=O)O)[nH]c2ccccc12)c1c(C(=O)O)[nH]c2ccccc12	-3.0	-15%	4%	-8	1	5

# These rows are one share of the data; count on the stated rates, not on these rows.
